Screening results from PubChem BioAssay.
Anaer choline gr = growth inhibitors of anaerobic choline-fed gram-negatives, minimal medium, absorbance; Gram-negative bacterium anaerobic choline minimal medium; hits give low values; many inactives read as strong as hits in the columns shown; AID 1963822, 2024; hit rate 0.2% among 55,000; calls only;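 active = growth z-score on choline under -2 at 7 or 20 h with little or no fall on glycerol, limits in tiers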;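 also: stock transfer was 300 nL into about 50 µL; the organism is E. coli; final concentration not given here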
Anaer choline gr early = also measured in Anaer choline gr; calls as there; z-score; measured here: choline growth z-score, timepoint 1;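 score of optical density at 7 h as mean of two plates; lower means less growth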
* = called active by the depositor; i = inactive; & = joins results of further samples. The list is partial; count on the stated rates, not on these rows.

SMILES | Anaer choline gr | Anaer choline gr early
O=C(NCc1ccc(F)cc1F)C1CCCN(c2ncnc3c2oc2ccccc23)C1 (stereo unspecified) | i | -2.05
Cc1sc(-c2ccno2)cc1S(=O)(=O)Nc1ccc(S(N)(=O)=O)cc1 | i | 0.2
O=C(Nc1cccc(-c2nnc(-c3ccccc3)o2)c1)Nc1ccccc1Cl | i | 0.21
Cc1ccc(CN2CCCC2c2cc(C(C)C)on2)cc1C (stereo unspecified) | i | 0.43
CCC1Cn2c(C(=O)N3CCCCC3)cc3cccc(c32)O1 (stereo unspecified) | i | 0.76
CCc1ccc(CNC(=O)C2CCN(c3ncnc4c3oc3ccccc34)CC2)cc1 | i | -0.24
CC(C)OC(=O)c1cc2ccsc2n1CC(=O)Nc1cc(F)ccc1F | i | 1.13
c1ccc(-c2nc3cc(-c4noc(C5CC5)n4)ccc3o2)cc1 | i | 0.41
CCOC(=O)c1c(S(=O)(=O)N2CCC(C(=O)NCc3ccccn3)CC2)c(C)n(C)c1C | i | -0.56
O=C(Nc1cccc(F)c1)c1ccc(C2Nc3ccccc3S(=O)(=O)N2)cc1 (stereo unspecified) | i | 0.18
COc1ccc(NC(=O)Cn2nc3c4sccc4ncn3c2=O)cc1 | i | -2.17
Cc1ccc(-c2cc(N3CCN(C(=O)c4ccc(F)c(Cl)c4)CC3)ncn2)cc1 | i | 0.85
COc1ccccc1Nc1ncnc2sc(C(=O)O)c(C)c12 | i | -0.12
O=c1c(-c2ccc(Cl)cc2)c(N2CCCCC2)c1=O | i | 1.77
CC(=O)Nc1ccc(S(=O)(=O)N2CCN(c3cc(N4CCCC4)nc(C)n3)CC2)cc1 | i | 0.82
COc1ccc(NC(=O)C2CCN(S(=O)(=O)c3c(C)[nH]c(C)c3C(=O)N3CCCC3)CC2)cc1 | i | -1.76
Cc1cccc(NC(=O)Nc2ccc(SCc3nnc(-c4ccccc4)o3)cc2)c1 | i | 1.6
COc1ccccc1NC(=O)c1sc2ncnc(N3CCN(C)CC3)c2c1C | i | 1.09
CCCCOc1ccc(CN2CCCC2c2cc(C)on2)cc1 (stereo unspecified) | i | 0.53
COc1ccc(OC)c(NC(=O)N2CCN(c3cc(N4CCOCC4)nc(C)n3)CC2)c1 | i | 0.13
COC(=O)c1ccc(NC(=O)c2ccc(=O)n(Cc3ccc(Cl)cc3)c2)cc1 | i | 0.22
COC(=O)CNC(=O)N1CCN(Cc2nc3cccnc3n2-c2ccccc2)CC1 | i | -0.92
O=C(Nc1ccccc1Cl)C1Sc2nnc(-c3ccccc3)n2NC12CCCCC2 (stereo unspecified) | i | -0.23
Cc1cccc(NC(=O)c2ccc3nnc(SCC(=O)Nc4ccc(C)cc4C)n3c2)c1 | i | -0.35
Cn1cc(Cc2nnc(NC(=O)CCn3c(C4CCCCC4)nc4ccccc43)s2)c2ccccc21 | i | -1.87
Cc1ccc(-c2c(N3CCOCC3)c(=O)c2=O)cc1 | i | -0.38
Cc1ncc(-c2ccc(S(=O)(=O)NC3CCCC3)s2)o1 | i | -1.06
Cc1ccc2[nH]c3c(=O)n(CC(C)c4ccccc4)cnc3c2c1 (stereo unspecified) | i | 0.09
O=C1C2N=NN(c3ccc(F)cc3)C2C(=O)N1c1cccc(Cl)c1 (stereo unspecified) | i | 0.08
Cc1ccc(S(=O)(=O)N2CCCC(c3nc(-c4ccc5c(c4)OCO5)no3)C2)cc1 (stereo unspecified) | i | 1.83
CC(C)Sc1nc(=O)n(CCc2ccccc2)c2c1CCC2 | i | 0.35
CCCCNC(=O)C1CCCN(c2ncnc3c2oc2ccccc23)C1 (stereo unspecified) | i | -0.07
Cn1c(C(=O)Nc2ccc(Cl)cc2)cc2c(=O)oc3ccccc3c21 | i | -0.84
Cn1c(SCC(N)=O)nnc1-c1cc2ccccc2o1 | i | -1.33
CCn1c(C)c(CCC(=O)N2CCC(C)CC2)c(=O)n2nc(-c3ccccc3OC)cc12 | i | 0.49
CN(C)CC(c1ccc(O)cc1)C1(O)CCCCC1 (stereo unspecified) | i | 0.36&0.92&0.57
COc1ccccc1-c1nnc(C2CCN(C(=O)c3ccccc3)CC2)o1 | i | 0.18
CC(C)Cc1csc(-c2csc(S(=O)(=O)NC(C)(C)C)c2)n1 | i | 0.64
Cn1nnc2cc(-c3noc(Cc4ccc(F)cc4)n3)ccc21 | i | 1.96
O=C(NCc1ccc(F)cc1)c1cncc(-c2ccc(F)cc2)c1 | i | 0.59
COc1cccc(C(=O)Nc2ccc3nc(NC(=O)c4ccccc4)sc3c2)c1 | i | 0.01
COC(=O)c1nc2ccccc2nc1N1CCN(c2ccc(Cl)cc2)CC1 | i | 0.77
CC(=O)NC(C)c1nc(-c2ccccc2C)no1 (stereo unspecified) | i | -1.08
CCOc1ccc(CC(=O)NCCc2sc3nc(-c4ccc(OC)cc4)nn3c2C)cc1 | i | 1.22
CC(C)(C)CC(C)(C)c1ccc(OCCOCC[N+](C)(C)Cc2ccccc2)cc1 | i | -2.69&-3.1
COc1ccc(/C=C/c2nn3c(-c4cccnc4)nnc3s2)cc1 | i | 0.14
COc1ccc(NC(=O)c2nnc(CCCC(=O)NCCc3c(C)noc3C)s2)cc1 | i | -0.86
Cc1cc(N2CCCC2)n2nc(C(F)(F)F)c(-c3ccccc3Cl)c2n1 | i | 0.61
CC1CCN(S(=O)(=O)c2ccc3c(c2)CCC(=O)N3CC(=O)N2CCN(C)CC2)CC1 | i | -0.41
CCOC(=O)C1CCN(S(=O)(=O)c2cc(-c3nc(C(C)(C)C)cs3)cs2)CC1 | i | -2.45

Next records follow:
SMILES | Anaer choline gr | Anaer choline gr early
Cc1ccc(-c2n[nH]c(CCNS(=O)(=O)c3cccc(C)c3)n2)cc1 | i | -2.04
CCOC(=O)c1c(C)c(CCC(=O)N2CCN(c3ccccn3)CC2)n(C)c1C | i | -0.86
COc1ccc(N(CC(=O)N2CCC(Cc3ccccc3)CC2)S(=O)(=O)c2c(C)nn(C)c2C)cc1 | i | 2.5
Cc1ccc(S(=O)(=O)c2nc(-c3ccccc3F)oc2N2CCC(C)CC2)cc1 | i | 0.58
COc1ccc(C(=O)NCC(c2cccnc2)N2CCN(c3ccccc3)CC2)cc1 (stereo unspecified) | i | -0.3
Cc1cc(S(=O)(=O)C(CNC(=O)c2ccccc2C)c2cccnc2)ccc1F (stereo unspecified) | i | -0.11
O=C(COc1ccccc1Cl)Nc1ccnn1C1CCCC1 | i | 0.87
COc1cccc(NCc2cccn2-c2nnc(N3CCN(c4ccccc4)CC3)s2)c1 | i | 0.88
O=C(Nc1ccc(F)c(F)c1)C1Nc2ccccc2S(=O)(=O)N1 (stereo unspecified) | i | 0.19
Cn1nc(C(=O)N2CCCC(C(=O)NC3CC3)C2)c2c1CCN(C(=O)C1CCCCC1)C2 (stereo unspecified) | i | -0.42
O=C(CCn1c(N2CCCC2)nc2ccsc2c1=O)N1CCN(c2ccc(F)cc2)CC1 | i | 0.57
CO/N=C(\C(=O)N[C@@H]1C(=O)N2C(C(=O)O)=C(COC(N)=O)CS[C@H]12)c1ccco1 | i | -2.65
Cc1c(C)n(-c2ccccc2)c2ncn(CCC(=O)NC3CCCC3)c(=O)c12 | i | -0.63
COCCn1c(CNS(=O)(=O)c2ccc(Cl)cc2)nc2cccnc21 | i | -0.23
O=C(NCC1CCCCC1)c1sc2ncccc2c1-n1cccc1 | i | 0.13
Cc1cc2nc(COc3ccc(Cl)cc3NC(=O)C(C)C)cc(=O)n2o1 | i | 1.27
O=C(Nc1ccc2c(c1)OCCO2)c1cccc(Oc2cc(-c3ccc(F)cc3)ncn2)c1 | i | 1.48
CC(C)[C@H](O)CC[C@@H](C)[C@H]1CC[C@H]2[C@@H]3CC=C4C[C@@H](O)CC[C@]4(C)[C@H]3CC[C@]12C | i | 0.42
COc1ccc(C2CC(=O)C3=C(C2)Nc2ccccc2NC3c2ccccc2C)cc1OC (stereo unspecified) | i | -0.19
Cc1oc(-c2ccno2)cc1S(=O)(=O)Nc1ccc(Cl)cn1 | i | 1.12
Cc1noc(-c2cccnc2NCCc2ccccc2)n1 | i | -0.35
O=C(NCc1ccccc1)c1cc(-c2cccnc2)nc2ccccc12 | i | 0.25
O=C(Nc1ccc2c(c1)OCCO2)c1n[nH]nc1Nc1ccccc1Cl | i | -0.41
Cc1cc(-c2c(-c3ccc(Cl)cc3)[nH]c3c2c(=O)n(C)c(=O)n3C)c(C)s1 | i | 0.04
COc1ccc(-c2nc(Nc3ccc(F)c(Cl)c3)c3ccccc3n2)cc1 | i | 0.34
COc1ccccc1Oc1cc(-c2cccc(C(=O)Nc3cccc(Cl)c3)c2)ncn1 | i | 1.06
O=C(CN1CC(=O)N2CCCC2C1=O)NCc1cccc(Cl)c1 (stereo unspecified) | i | 0.93
Cn1c(=O)c2c(-c3ccccc3)n3c(c2n(C)c1=O)C(c1c[nH]c2ccccc12)OCC3 (stereo unspecified) | i | 0.66
COc1cccc(C(=O)NCC(c2ccc(N(C)C)cc2)N(C)C)c1OC (stereo unspecified) | i | -0.28
CCc1nc(CN2C(=O)COc3cc(S(=O)(=O)N4CCCC4)c(Cl)cc32)no1 | i | 0.89
Cc1ccc(-c2cn3c4c(=O)n(C)c(=O)n(C)c4nc3n2Cc2ccc(F)cc2)cc1 | i | -0.04
O=C(c1c(-c2ccc(F)cc2)nc2n1CCS2(=O)=O)N1CCCCC1 | i | -0.23
Cc1nn(-c2cc(N3CCOCC3)ncn2)c(C)c1CCC(=O)NCCC1=CCCCC1 | i | -0.49
CCOC(=O)c1c(NC(C)=O)c2c(C)c(C)sc2n1CC(=O)N1CCCCC1CC (stereo unspecified) | i | 0.25
Cc1ccc(OCc2cc(=O)n3oc(C)cc3n2)c(NC(=O)COc2cc(C)ccc2C(C)C)c1 | i | -0.28
CC(C)CNC(=O)CCn1c(=O)c2ccccc2n2c(SCC(=O)NC3CCCC3)nnc12 | i | -0.62
O=C(c1ccc(Cl)cc1)N1CCN(Cc2cc(=O)n3nc(-c4ccccc4F)sc3n2)CC1 | i | -0.16
C[C@H](N[C@@H](CCc1ccccc1)C(=O)O)C(=O)N1Cc2ccccc2C[C@H]1C(=O)O | i | -0.07
CCN(CC)S(=O)(=O)c1c(C)nn(S(C)(=O)=O)c1C | i | -0.62
CCOC(=O)c1[nH]c(C)c(CN(Cc2ccc(OC)cc2)C(=O)Nc2ccc(OC)cc2)c1C | i | 0.34
Cc1ccccc1-c1nn2c(=O)cc(CN3CCN(C(=O)c4ccccc4Br)CC3)nc2s1 | i | -0.79
Cc1cc2nc(-c3ccccn3)cc(C(F)(F)F)n2n1 | i | 0.17
Cc1nnc(NC(=O)CSc2nc(=O)n(Cc3ccccn3)c3c2CCC3)s1 | i | -0.06
O=C(CCc1nc2ccccc2n(CC(=O)NC2CCc3ccccc32)c1=O)NC1CC1 (stereo unspecified) | i | 0.04
CCOC(=O)c1c(S(=O)(=O)NCC(=O)Nc2ccc(C)cn2)c(C)n(CC)c1C | i | -0.25
Cc1ccc(-c2nc(CSCC(=O)NC3CC3)no2)cc1 | i | -0.51
COc1cccc(Cn2cccc(S(=O)(=O)N3CCC(C)CC3)c2=O)c1 | i | 0.06
COc1cccc(C(=O)NCC(c2ccc(Br)cc2)c2c[nH]c3ccccc23)c1 (stereo unspecified) | i | 1.56
CCOC(=O)C1CCN(C(=O)CCc2nc(-c3ccc(N4CCCC4)cc3)no2)CC1 | i | 0.34
Cc1ccc(-c2nc(CSc3nc(-c4cccnc4)cc(=O)[nH]3)c(C)o2)cc1 | i | 0.69

3 entries already listed, sorted by count of non-hydrogen atoms, descending:
SMILES | Anaer choline gr | Anaer choline gr early
O=C(CCc1nc2ccccc2n(CC(=O)NC2CCc3ccccc32)c1=O)NC1CC1 (stereo unspecified) | i | 0.04
COc1cccc(C(=O)NCC(c2ccc(Br)cc2)c2c[nH]c3ccccc23)c1 (stereo unspecified) | i | 1.56
Cc1ccc(-c2nc(CSc3nc(-c4cccnc4)cc(=O)[nH]3)c(C)o2)cc1 | i | 0.69

Remaining list, next part
SMILES | Anaer choline gr | Anaer choline gr early
COc1ccc(NC(=O)c2c(-c3ccccc3)oc3ccc(OC)cc23)cc1 | i | 1.78
Cc1c(CNCC2CCCO2)c(C(=O)O)c(C)n1Cc1ccc(Cl)cc1 (stereo unspecified) | i | 0.24
Cc1sc(-c2nc(C(C)C)cs2)cc1S(=O)(=O)Nc1cc(F)ccc1F | i | 1.03
CC(C)n1cnc2nc(CSc3ccc(NC(=O)C4CCCCC4)cc3)cc(=O)n21 | i | 1.74
COc1ccc(CCNC(=O)c2ccc3c(c2)c(C)c(C)n3C)cc1OC | i | -0.96

Among those listed so far, 13 have a thiophene ring, fused or not:
SMILES | Anaer choline gr | Anaer choline gr early
Cc1sc(-c2ccno2)cc1S(=O)(=O)Nc1ccc(S(N)(=O)=O)cc1 | i | 0.2
CC(C)OC(=O)c1cc2ccsc2n1CC(=O)Nc1cc(F)ccc1F | i | 1.13
COc1ccc(NC(=O)Cn2nc3c4sccc4ncn3c2=O)cc1 | i | -2.17
COc1ccccc1Nc1ncnc2sc(C(=O)O)c(C)c12 | i | -0.12
COc1ccccc1NC(=O)c1sc2ncnc(N3CCN(C)CC3)c2c1C | i | 1.09
Cc1ncc(-c2ccc(S(=O)(=O)NC3CCCC3)s2)o1 | i | -1.06
CC(C)Cc1csc(-c2csc(S(=O)(=O)NC(C)(C)C)c2)n1 | i | 0.64
CCOC(=O)C1CCN(S(=O)(=O)c2cc(-c3nc(C(C)(C)C)cs3)cs2)CC1 | i | -2.45
O=C(CCn1c(N2CCCC2)nc2ccsc2c1=O)N1CCN(c2ccc(F)cc2)CC1 | i | 0.57
O=C(NCC1CCCCC1)c1sc2ncccc2c1-n1cccc1 | i | 0.13
Cc1cc(-c2c(-c3ccc(Cl)cc3)[nH]c3c2c(=O)n(C)c(=O)n3C)c(C)s1 | i | 0.04
CCOC(=O)c1c(NC(C)=O)c2c(C)c(C)sc2n1CC(=O)N1CCCCC1CC (stereo unspecified) | i | 0.25
Cc1sc(-c2nc(C(C)C)cs2)cc1S(=O)(=O)Nc1cc(F)ccc1F | i | 1.03
